Screens (PubChem BioAssay)
Polio RdRp inh – inhibitors of poliovirus RNA polymerase binding and polymerization | P03300 | poliovirus polymerase elongation, fluorescence polarization; stronger effect = lower value | % elongation, % (compound at 16.7 µg/mL) | 150,000 tested, 0.66% active | AID 588519; in the data active = % elongation below about 90%; note: some results filed as inactive read as strong as hits
Target sequence (P03300 1749-2209 limits assumed): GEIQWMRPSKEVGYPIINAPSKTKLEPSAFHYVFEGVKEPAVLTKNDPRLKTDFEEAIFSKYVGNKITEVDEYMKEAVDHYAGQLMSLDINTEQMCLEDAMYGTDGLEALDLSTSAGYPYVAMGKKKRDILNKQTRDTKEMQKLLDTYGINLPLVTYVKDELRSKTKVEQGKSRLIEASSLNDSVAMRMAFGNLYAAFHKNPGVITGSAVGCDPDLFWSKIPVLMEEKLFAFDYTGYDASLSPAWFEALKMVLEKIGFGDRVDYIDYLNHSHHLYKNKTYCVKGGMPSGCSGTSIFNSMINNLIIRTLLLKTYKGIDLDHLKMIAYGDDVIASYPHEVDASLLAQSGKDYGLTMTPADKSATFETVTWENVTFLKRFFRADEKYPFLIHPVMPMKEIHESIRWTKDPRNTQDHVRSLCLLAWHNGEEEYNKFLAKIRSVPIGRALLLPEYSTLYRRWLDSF
Polio RdRp inh intensity – also measured in Polio RdRp inh; calls as there; % elongation; measured here: total intensity read-out; formula for this scale not given here;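 total fluorescence in place of polarization; lower means less elongation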
The depositor's hits bear a star. An excerpt; rates above refer to the full screens.

The opening 19 entries as a preview:
SMILES | Polio RdRp inh | Polio RdRp inh intensity
CCN(CC)CCCNC(=O)c1cn(CC)c2ccc(S(=O)(=O)N3CCC(C)CC3)cc2c1=O | 110 | 110
COc1ccccc1CNC(=O)C1CCCN(S(=O)(=O)c2ccc3c(c2)oc(=O)n3C)C1 (centres undefined) | 113 | 110
CCOc1ccccc1CNC(=O)c1cnc2sc(N(CC)CC)nn2c1=O | 104 | 115
Cc1cccc(Cn2cccc(C(=O)Nc3ccc(F)cc3F)c2=O)c1 | 109 | 104
O=C(COc1ccccc1F)Nc1ccc2nc(SCC(=O)N3CCOCC3)sc2c1 | 113 | 109
Cc1cc(C)c(NC(=O)CCC(=O)N2Cc3ccccc3Oc3ncccc32)c(C)c1 | 110 | 111
CC(C)OCCCNC(=O)c1ccc2c(=O)n(CCc3ccccc3)c(=O)[nH]c2c1 | 106 | 105
COC(=O)c1cc2oc3ccccc3c2n1Cc1nc(-c2ccc(Cl)cc2)oc1C | 107 | 107
CCc1ccccc1NC(=O)N1CCC2(CC1)Oc1ccccc1C(=O)N2Cc1ccccc1F | 108 | 110
COC(=O)c1ccccc1NC(=O)c1ccc(-c2nc(COc3ccccc3)c(C)o2)cc1 | 103 | 97
Cc1ccccc1CNC(=O)c1ccc2[nH]c(C)c(C)c2c1 | 104 | 99
CCc1cc2c(-c3ccccc3)cc(=O)oc2c2c1OCN(Cc1ccc(C)cc1)C2 | 112 | 110
Cn1c(=O)oc2cc(S(=O)(=O)N3CCCC(C(=O)NCc4ccc(F)cc4)C3)ccc21 (centres undefined) | 109 | 106
Cc1cc(C)c(NC(=O)Cn2c(=O)n(Cc3ccco3)c(=O)c3ccc(C(=O)NC4CCCC4)cc32)c(C)c1 | 107 | 107
O=C(NC1CC(=O)N(c2cccc(F)c2)C1)c1ccc(S(=O)(=O)N2CCOCC2)cc1 (centres undefined) | 108 | 113
Oc1ccccc1-c1nc(/C=C/c2ccccc2Cl)no1 | 41* | 48*
O=C(NC1CCCC1)c1ccc2c(c1)N(Cc1ccccc1)C(=O)c1ccccc1S2 | 112 | 114
O=C(CCc1nc(CN2CCN(S(=O)(=O)c3ccc(Br)cc3)CC2)no1)N1CCCCC1 | 105 | 103
CCOc1ccc(NC(=O)c2cc3c(n(-c4ccc(OC)cc4)c2=O)CC(C)(C)CC3=O)cc1 | 106 | 105

The whole of this part, repeating the preview:
SMILES | Polio RdRp inh | Polio RdRp inh intensity
CCN(CC)CCCNC(=O)c1cn(CC)c2ccc(S(=O)(=O)N3CCC(C)CC3)cc2c1=O | 110 | 110
COc1ccccc1CNC(=O)C1CCCN(S(=O)(=O)c2ccc3c(c2)oc(=O)n3C)C1 (centres undefined) | 113 | 110
CCOc1ccccc1CNC(=O)c1cnc2sc(N(CC)CC)nn2c1=O | 104 | 115
Cc1cccc(Cn2cccc(C(=O)Nc3ccc(F)cc3F)c2=O)c1 | 109 | 104
O=C(COc1ccccc1F)Nc1ccc2nc(SCC(=O)N3CCOCC3)sc2c1 | 113 | 109
Cc1cc(C)c(NC(=O)CCC(=O)N2Cc3ccccc3Oc3ncccc32)c(C)c1 | 110 | 111
CC(C)OCCCNC(=O)c1ccc2c(=O)n(CCc3ccccc3)c(=O)[nH]c2c1 | 106 | 105
COC(=O)c1cc2oc3ccccc3c2n1Cc1nc(-c2ccc(Cl)cc2)oc1C | 107 | 107
CCc1ccccc1NC(=O)N1CCC2(CC1)Oc1ccccc1C(=O)N2Cc1ccccc1F | 108 | 110
COC(=O)c1ccccc1NC(=O)c1ccc(-c2nc(COc3ccccc3)c(C)o2)cc1 | 103 | 97
Cc1ccccc1CNC(=O)c1ccc2[nH]c(C)c(C)c2c1 | 104 | 99
CCc1cc2c(-c3ccccc3)cc(=O)oc2c2c1OCN(Cc1ccc(C)cc1)C2 | 112 | 110
Cn1c(=O)oc2cc(S(=O)(=O)N3CCCC(C(=O)NCc4ccc(F)cc4)C3)ccc21 (centres undefined) | 109 | 106
Cc1cc(C)c(NC(=O)Cn2c(=O)n(Cc3ccco3)c(=O)c3ccc(C(=O)NC4CCCC4)cc32)c(C)c1 | 107 | 107
O=C(NC1CC(=O)N(c2cccc(F)c2)C1)c1ccc(S(=O)(=O)N2CCOCC2)cc1 (centres undefined) | 108 | 113
Oc1ccccc1-c1nc(/C=C/c2ccccc2Cl)no1 | 41* | 48*
O=C(NC1CCCC1)c1ccc2c(c1)N(Cc1ccccc1)C(=O)c1ccccc1S2 | 112 | 114
O=C(CCc1nc(CN2CCN(S(=O)(=O)c3ccc(Br)cc3)CC2)no1)N1CCCCC1 | 105 | 103
CCOc1ccc(NC(=O)c2cc3c(n(-c4ccc(OC)cc4)c2=O)CC(C)(C)CC3=O)cc1 | 106 | 105
COc1ccc(NC(=O)c2c(NCc3ccc(OC)c(OC)c3OC)sc3c2CCC3)c(OC)c1 | 115 | 118
COc1ccc(Cl)cc1NC(=O)c1sc2nc3c(cc2c1N)CN(C)CC3 | 103 | 111
COc1ccc(-c2c(C)c3cc(OC(=O)N4CCOCC4)ccc3oc2=O)cc1OC | 114 | 110
Cc1c(C(=O)Nc2cccc(Cl)c2)oc2ccc(S(=O)(=O)N3CCCCCC3)cc12 | 110 | 112
O=C(CCNS(=O)(=O)c1ccc2c(c1)CCCC(=O)N2)NCc1ccccc1Cl | 106 | 111
Cc1cccc(C(=O)Nc2ccccc2OCc2cc(=O)n3cc(C)ccc3n2)c1 | 108 | 115

Overlap with the part before: 2 compounds, followed by the next part.
SMILES | Polio RdRp inh | Polio RdRp inh intensity
O=C(CCNS(=O)(=O)c1ccc2c(c1)CCCC(=O)N2)NCc1ccccc1Cl | 106 | 111
Cc1cccc(C(=O)Nc2ccccc2OCc2cc(=O)n3cc(C)ccc3n2)c1 | 108 | 115
CCOc1ccc(N(C(=O)c2ccc(C)cc2)S(=O)(=O)c2ccc3c(c2)n(C)c(=O)n3C)cc1 | 101 | 107
CC(C)CC(=O)Nc1ccc2nc(SCC(=O)N3CCc4ccccc43)sc2c1 | 102 | 100
Cc1c(CNCCCc2ccccc2)c(C(=O)O)c(C)n1Cc1ccc(Cl)cc1 | 109 | 96
Cc1ccc2c(c1)c1c(c(=O)n(-c3ccccc3)c(=O)n1CC(=O)c1ccc(Cl)cc1)n2C | 105 | 101
COc1ccc(C2(CNC(=O)C(=O)Nc3ccc(F)cc3)CCCC2)cc1OC | 106 | 107
COc1cc(C(=O)N2CCN(C(=O)COc3cccc(C)c3)CC2)cc(OC)c1OC | 107 | 105
Cc1ccc2c(c1)-c1ncc(C(=O)c3ccccc3O)cc1CO2 | 105 | 107
Cc1cccc(S(=O)(=O)c2cn(Cc3ccccc3)c3cc(N4CCCC(C)C4)c(F)cc3c2=O)c1 (centres undefined) | 108 | 108
CCOC(=O)c1ccc(NC(=O)C2CCCN(c3ncnc4onc(C)c34)C2)cc1 (centres undefined) | 108 | 113
Cc1ccccc1Cn1c(=O)n(CCc2ccccc2)c(=O)c2sc3ccccc3c21 | 101 | 99
COc1cccc(CNC(=O)c2sc3nc4n(c(=O)c3c2C)CCC4)c1 | 114 | 116
Cc1ccc(/C=C/c2onc(C)c2S(=O)(=O)N2CCC(C(=O)N3CCN(c4cccc(C)c4)C(C)C3)CC2)cc1 (centres undefined) | 105 | 110
Cc1ccc(N(C)S(=O)(=O)c2ccc(-c3coc(C)n3)cc2)cc1 | 107 | 107
Cc1cccc(Cn2c(=O)n(CC3CCC(C(=O)N4CCC(C)CC4)CC3)c(=O)c3sccc32)c1 (centres undefined) | 105 | 109
CC(=O)Nc1cccc(-c2nc(-c3ccccc3)no2)c1 | 110 | 114
COc1ccc(NC(=O)c2oc3ccccc3c2NC(=O)Cc2coc3c(C)c(C)ccc23)cc1 | -10* | 20*
O=C(COc1ccc(Cl)cc1Cl)Nc1ccc(C(=O)OC2CCCCC2)cc1 | 102 | 105
COCCNC(=O)C(=O)NCC(c1cccnc1)N1CCN(c2ccccc2)CC1 (centres undefined) | 108 | 108
CCN(CC)CCn1c(=N)n(CC(O)COc2ccccc2C)c2ccccc21 (centres undefined) | 106 | 108
CCCCC(CC)CNC(=O)CN1C(=O)CSc2ccc(S(=O)(=O)N3CCOCC3)cc21 (centres undefined) | 112 | 116
COC(=O)c1c(-c2cccs2)csc1NC(=O)c1ccc(C(C)C)cc1 | 67* | 73*
COc1ccc(-c2cc(C(=O)Oc3ccc(Cl)cc3)c3ccccc3n2)cc1 | 105 | 104
COc1ccc(N2CCN(C(=O)c3cn(C)c4ccc(S(=O)(=O)N(C)C5CCCCC5)cc4c3=O)CC2)cc1 | 104 | 105
Cc1cc(O)c(C(c2cccc(F)c2)N2CCN(c3ccccc3)CC2)c(=O)n1Cc1ccco1 (centres undefined) | 106 | 114
COc1ccc(CCNC(=O)c2ccc3c(c2)c(C)c(C)n3Cc2ccc(F)cc2)c(OC)c1OC | 109 | 110

Additional structures follow.
SMILES | Polio RdRp inh | Polio RdRp inh intensity
Cc1cccc(CSc2nc3cccnc3n2Cc2ccc(C(=O)NCc3cccs3)cc2)c1 | 106 | 104
O=C(Nc1ccc(C(=O)N2CCN(c3cccc(Cl)c3)CC2)cc1)c1nsc2ccccc12 | 111 | 114
CCOc1ccc(NC(=O)C(=O)NCCc2csc(-c3ccc(F)cc3)n2)cc1 | 110 | 110
CCOc1ccc(-n2c(SCC(=O)Nc3ccc4c(c3)OCCO4)nc3c([nH]c4ccccc43)c2=O)cc1 | 109 | 103
CCOC(=O)C1=C(C)NC(=O)NC1c1cn(-c2ccccc2)nc1-c1ccc(OC(C)C)cc1 (centres undefined) | 108 | 110
CCOC(=O)c1cccc(NC(=O)C(Cc2ccccc2)NS(=O)(=O)c2cccc3nsnc23)c1 (centres undefined) | 109 | 110
CC(C)(C)c1ccc(-c2nc(SCCOc3ccc(Cl)cc3)n3[nH]c(=O)cc3n2)cc1 | 103 | 90
CCOC(=O)c1c(C)oc2ccc(N(C(=O)Oc3ccccc3)S(=O)(=O)c3ccccc3)cc12 | 109 | 110
Cc1ccc(NC(=O)NCc2cccn2Cc2ccccc2)c(C)c1 | 105 | 103
Cn1c(=O)n(C)c2cc(NS(=O)(=O)c3ccc(F)cc3)c(NCc3ccccc3)cc21 | 103 | 105
Cc1ccc(CSc2nc3ccccc3c3nc(CCn4c(C)nc5ccccc54)nn23)cc1 | 115 | 113
CC(C)(C)c1ccc(S(=O)(=O)NCc2ccc3c(c2)CCN3C(=O)c2ccccc2)cc1 | 104 | 107
COc1ccc(-c2cc(C(F)(F)F)n3nc(C(=O)NCC45CC6CC(CC(C6)C4)C5)cc3n2)cc1OC | 100 | 98
CCOC(=O)C1=C(C(F)(F)F)Nc2ncnn2C1c1cccc(OC)c1OC (centres undefined) | 109 | 120
